HSV replic up: HSV replication enhancement; HSV replication augmentation in cells, fold increase; maximum fold increase; 0.005% of 220,000 active; AID 1956;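 active = peak rise of 1.5-fold or more in the series; inconclusive = self-fluorescent or not available for retest; tested in PC3 cells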;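 note: first round at 10 µM; read as green reporter fluorescence; hits show the peak of a series up to 25 µM; 1 = signal of infected wells without compound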
GALR2 agonist: agonists of human galanin receptor 2 (GALR2) | GALR2-expressing cells, agonist activation read-out | 0.48% of 140,000 active | O43603 | activation, %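 (tested at 5 µM)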;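 active = above mean plus 3 SD of all compounds, about 5% in these data, not always enough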;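 note: 0% = vehicle buffer wells and 100% = reference agonist at full effect; tested in CHO reporter cells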
RGS16-Gao HTS: RGS16-Galphao interaction regulator (human); AID 1441; 0.38% of 220,000 active; binding response (% of control), % at 10 µM; bead-based flow cytometry RGS16-Galphao binding, fluorescence; actives lie on both sides; O15492+P09471;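 active = below 25% or above 175%, edge rows of some plates excepted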;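 note: Galphao activated by GDP with aluminum fluoride before binding; 100% = wells without compound and 0% = beads without RGS; some results beyond the cut were filed as inactive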
PKD1 inh: inhibitors of human PKD1 kinase; Q15139; PKD1 kinase fluorescence polarization assay; inhibition, %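 (about 10 µM by stock and volumes)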; 0.056% of 200,000 active; AID 797;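 active = inhibition of 50% or more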;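 note: controls were vehicle for no effect and a reference inhibitor for full effect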
Target sequence (Q15139 whole entry, looked up): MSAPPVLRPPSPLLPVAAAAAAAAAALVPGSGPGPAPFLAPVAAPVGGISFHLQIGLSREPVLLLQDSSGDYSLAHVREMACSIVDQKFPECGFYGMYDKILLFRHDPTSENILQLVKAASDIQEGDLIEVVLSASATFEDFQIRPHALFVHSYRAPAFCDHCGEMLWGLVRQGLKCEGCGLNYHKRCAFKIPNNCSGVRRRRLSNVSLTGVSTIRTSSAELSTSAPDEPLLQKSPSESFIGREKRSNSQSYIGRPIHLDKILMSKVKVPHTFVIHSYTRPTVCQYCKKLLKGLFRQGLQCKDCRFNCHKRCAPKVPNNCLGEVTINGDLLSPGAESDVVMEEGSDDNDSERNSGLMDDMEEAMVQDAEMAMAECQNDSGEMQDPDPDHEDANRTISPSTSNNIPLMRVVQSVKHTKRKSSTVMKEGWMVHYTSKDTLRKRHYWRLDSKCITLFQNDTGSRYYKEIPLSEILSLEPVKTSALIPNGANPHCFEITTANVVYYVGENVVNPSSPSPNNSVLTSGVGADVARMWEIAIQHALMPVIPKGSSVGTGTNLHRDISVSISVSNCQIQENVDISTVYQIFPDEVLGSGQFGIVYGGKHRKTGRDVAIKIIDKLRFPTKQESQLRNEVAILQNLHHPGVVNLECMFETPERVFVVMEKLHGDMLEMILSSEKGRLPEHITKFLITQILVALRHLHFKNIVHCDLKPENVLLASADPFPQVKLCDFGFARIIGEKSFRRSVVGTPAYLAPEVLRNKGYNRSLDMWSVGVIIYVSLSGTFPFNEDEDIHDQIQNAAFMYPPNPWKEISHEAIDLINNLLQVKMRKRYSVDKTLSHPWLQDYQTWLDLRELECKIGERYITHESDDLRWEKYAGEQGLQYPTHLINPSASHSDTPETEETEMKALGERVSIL
INS promoter inh: TRM-6 insulin promoter activity inhibition | TRM-6 cells (human fetal islet line), insulin promoter-eGFP reporter, imaging; reporter expression induced with tamoxifen | inhibition, % at 2 µM | 0.9% of 130,000 active;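 active = inhibition above the mean plus 3 SD, with well images judged a real hit on visual review, cut at about 60% in these data, passing the limit was not always enough; inconclusive = inhibition over the cutoff but images rejected on review; inactive = inhibition not above the cutoff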
INS promoter inh cell count: second read-out of INS promoter inh, no call of its own (marks repeat the call); normalized cell count, %; measured here: cell count, toxicity; reference of the scale not given here;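 cells exposed to compound for 48 h; stained nuclei by imaging scaled within each plate; lower means fewer cells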
HSV replic up primary fold: also measured in HSV replic up; calls as there; fold increase; compound at 10 µM; measured here: primary screen fold increase 10 uM; tested in PC3 cells;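 GFP signal in the first replicate; 1 = infected wells without compound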
* hit, by the source's call; i = inactive; ? = inconclusive; . = no result given.

SMILES	HSV replic up	HSV replic up primary fold	GALR2 agonist	RGS16-Gao HTS	PKD1 inh	INS promoter inh	INS promoter inh cell count
COC(=O)c1ccsc1NC(=O)CSc1nnnn1-c1ccccc1SC	i	1.1	-0.3	99	5	-317	80
Cc1cccc(NC(=O)c2ccco2)c1C(=O)O	i	0.98	.	106	.	.	.
COc1ccc(-c2nnc3n(CCc4ccccc4)c(=O)c4ccccc4n23)cc1OC	i	0.87	0.3	90	5	.	.
CC(C)(C)C(=O)NC(=S)NNC(=O)c1ccc(-c2ccccc2)cc1	i	0.65	.	95	-7	.	.
CN1CCN(C(=O)C23CC4CC(C)(CC(C)(C4)C2)C3)CC1	i	1.2	.	109	.	.	.
COc1cc(/C=N\NC(=O)c2ccc(C)nc2)ccc1OC(=O)c1ccc2c(c1)OCO2	i	1	.	107	12	20	91
CC(=O)Nc1c(O)nc(C)[nH]c1=O	i	1	.	104	.	.	.
CC(C)OCCCNC(=O)Cc1ccc(F)cc1	i	0.88	.	99	-6	.	.
O=C(CC(c1ccccc1)c1ccccc1)Nc1ccncc1	i	0.95	.	94	.	.	.
O=S(=O)(c1ccc(Cl)cc1)N1CCNCC1	i	0.97	.	94	-2	.	.
COc1ccc(-n2c(SCC#N)nnc2-c2ccc(NS(=O)(=O)c3ccc(C)cc3)cc2)cc1	i	0.91	-0.6	101	1	.	.
C=CCn1c(=O)/c(=C/c2cc(OC)c(OC)c(OC)c2)s/c1=C(/C#N)c1nc2ccccc2n1C	.	.	0.0	107	-14	.	.
C/C(=N\NC(=O)c1cc(-c2cccc([N+](=O)[O-])c2)n[nH]1)c1ccccc1O	i	1.2	-0.7	96	-17	.	.
O=C(NCc1ccc2c(c1)OCO2)C1CCN(Cc2cnn(-c3ccccc3)c2-n2cccc2)CC1	i	0.97	-0.5	104	-2	-24	149
O=c1c2[nH]c3ccc(F)cc3c2nc2n1CCCS2	i	0.79	.	100	-4	.	.
Cc1ccc(-c2nnc(N(C)C(=O)c3cccnc3)s2)cc1	i	1	-1.2	115	-13	42	85
COc1ccc(/C=C2\Oc3cc(OC(=O)N4CCOCC4)ccc3C2=O)cc1	i	0.89	.	108	.	.	.
O=C(CSc1nnnn1C1CCCC1)N1CCN(C(=O)c2ccco2)CC1	i	0.86	-0.7	96	-1	-57	157
COc1ccc(C(O)P(=O)(OCc2ccccc2)c2ccc(N(C)C)cc2)cc1 (centres undefined)	i	0.82	.	95	.	.	.
Cc1[nH]c2ccccc2c1C(C[N+](=O)[O-])c1cccc(O)c1 (centres undefined)	i	0.97	.	45	2	-7	80
Cc1ccc(Nc2nnc(SCC(=O)Nc3cccc(S(=O)(=O)N4CCCCC4)c3)s2)cc1	i	0.97	-0.4	95	4	.	.
O=c1c([N+](=O)[O-])cccn1Cc1ccccc1Cl	i	0.89	.	105	0	27	125
COc1ccc2[nH]cc(C(=O)N3CCCCC3)c(=O)c2c1	i	0.98	-2.1	102	1	-71	131
CC1CCN(C(=O)Cn2cnc3c(cnn3C(C)(C)C)c2=O)CC1	i	0.98	.	106	1	.	.
Cc1nc2ccccn2c1C(=O)NCCCN1CCOCC1	i	0.96	-2.9	100	-8	-19	154
Going on with the list.
SMILES	HSV replic up	HSV replic up primary fold	GALR2 agonist	RGS16-Gao HTS	PKD1 inh	INS promoter inh	INS promoter inh cell count
COc1ccc(NC(=O)CN(C)S(=O)(=O)c2ccc3c(c2)OCCO3)c2ncccc12	i	0.92	-1.4	107	-8	.	.
CC(C)=NNc1nc(-c2ccccc2)cs1	i	0.99	0.7	108	-6	-42	90
CSc1n[nH]c(NCc2ccccc2)n1	i	0.9	-2.3	113	1	50	117
O=C(Nc1ccc(S(=O)(=O)N2CCCCC2c2cccnc2)cc1)c1ccccc1F (centres undefined)	i	0.83	.	108	-7	-82	87
CC1CCCC(C)N1CCCNC(=O)Cn1cc2c(n1)CCCC2 (centres undefined)	i	1.1	-1.6	46	11	.	.
Cc1cccc(/C=C/C(=O)c2ccc(NC3=NCCCS3)cc2)c1	i	0.8	-0.6	99	1	.	.
CC(=O)OCC(=O)Nc1ccc(N=Nc2ccccc2)cc1	i	0.99	-1.4	83	-13	.	.
Nc1cc(S(=O)(=O)C(F)(F)F)ccc1C(=O)O	i	1	-3.1	101	6	-42	120
CCc1nnc2sc(-c3ccc(NC(=O)CSc4ccc(Cl)cc4)cc3)nn12	.	.	-2.4	.	-3	.	.
COc1ccc(NC(=O)CN(C)S(=O)(=O)c2ccc(Cl)cc2)cc1Cl	i	0.91	-2.2	99	-8	-22	93
CCOc1ccc2nc(SCC(=O)c3cccs3)sc2c1	i	0.92	-2.9	132	2	-152	115
COc1ccc(/C=N/Nc2nc(Nc3ccccc3)nc(N3CCCC3)n2)cc1	i	0.86	.	107	2	-44	106
CCn1c(SCC(=O)N/N=C/C=C/c2ccccc2[N+](=O)[O-])nnc1-c1ccc(Cl)cc1	i	0.89	-0.8	107	-4	.	.
N#Cc1ccsc1NC(=O)CN1CCOCC1	i	0.9	.	90	.	.	.
COc1ccccc1N(CN1C(=O)c2ccccc2C1=O)C(=O)c1cccc(C)c1	i	0.98	-1.4	104	-5	.	.
CCOC(=O)C1(CCc2ccccc2)CCN(Cc2ccccn2)CC1	i	1.1	.	99	1	.	.
Cn1c(=O)c(NC(=O)c2ccccc2)c2n(c1=S)CCCCC2	i	0.96	0.1	104	-1	-29	92
COc1cc(NC(=O)CSc2ncnc3c2cnn3Cc2ccccc2)cc(OC)c1	i	1.1	-1.3	104	-2	14	102
Cc1ccc(C(=O)NCC(=O)OCC(=O)Nc2ncc(C(F)(F)F)cc2Cl)cc1	i	1	-1.1	105	-6	.	.
C/C=C/CSc1nc2c(c(=O)[nH]c(=O)n2C)n1C(C)C	i	0.92	0.8	89	5	32	103
Cc1cc(C)c(S(=O)(=O)NCCn2ccc3ccccc32)c(C)c1	i	0.8	-1.8	102	-10	.	.
Cn1c(CNC(=O)c2cccs2)n[nH]c1=S	i	0.94	-1.8	104	-7	15	99
CCCc1nc(N)c(C#N)c(-c2cccnc2)c1CC	i	0.93	-1.1	102	13	.	.
Nc1nc(-c2ccc3c(c2)NC(=O)CO3)cs1	.	.	-1.4	99	-5	-13	88
O=C(Nc1ccc(S(=O)(=O)N2CCCCC2)cc1)c1ccncc1	i	1	0.5	104	0	-8	78
Carrying on.
SMILES	HSV replic up	HSV replic up primary fold	GALR2 agonist	RGS16-Gao HTS	PKD1 inh	INS promoter inh	INS promoter inh cell count
COc1ccc(C(=O)N2CCCC(C(=O)N3CCCCCC3)C2)cc1 (centres undefined)	i	0.84	-2.9	102	-1	-28	82
CN(C)C(=O)COc1ccc(Oc2ccccc2)cc1	i	0.94	.	100	-11	.	.
O=CN(c1ccccc1)c1ccc2ccccc2c1	i	0.76	.	97	-6	.	.
CCCNC(=S)Nc1c(C)n(C)n(-c2ccccc2)c1=O	i	1	.	101	-2	.	.
Cc1cc(NC(=O)COC(=O)c2cccc(S(=O)(=O)N3CCOCC3)c2)no1	i	0.92	-0.3	95	-8	18	138
CCc1ccccc1NC(=O)c1nnn(CC(=O)Nc2cccc(C)c2C)c1N	i	1.1	4.5	103	1	8	103
CC(=O)Nc1ccc(/C(C)=N/NC(=O)c2ccncc2)cc1	i	0.9	.	64	-6	.	.
CN(CC(=O)Nc1ccc(C#N)cc1)Cc1ccc(Cl)cc1	i	0.83	-0.9	114	3	.	.
CCCC(=O)c1c[nH]c(C(=O)NCCCN2CCOCC2)c1	i	0.88	-1.6	103	19	3	141
Cc1ccc2cccc(S(=O)(=O)Nc3ccc4c(c3)OCO4)c2n1	i	1.1	-2.1	101	-3	-91	131
CC1(C)CC(=O)C2=C(C1)OC(=O)C2(NC(=O)c1cccs1)C(F)(F)F (centres undefined)	i	1	-0.5	101	-12	-4	131
C=CCNC(=O)c1ccccc1CCc1ccccc1	i	1.1	.	106	-3	21	97
COc1ccc2nc(N3C(=O)/C(=C/c4ccccc4)NC3=S)sc2c1	?	.	-0.5	109	-1	4	117
Cc1ccc(N2C(=S)N=C(Nc3ccccc3C)C23CCOC(C)(C)C3)cc1 (centres undefined)	i	0.65	-2.4	99	-5	-36	84
CSc1nnc2n(Cc3ccccc3)c(=O)c3c4c(sc3n12)COC(C(C)C)C4 (centres undefined)	.	.	-0.3	106	-6	10	149
COc1ccc(N2CCN(C(=O)/C(C#N)=C/c3ccccc3)CC2)cc1	?	.	.	92	3	11	121
CC(C)(C)c1ccc(-c2nc(C#N)c(NCc3ccncc3)o2)cc1	i	0.78	0.0	98	-11	.	.
CCCCc1ccc(NC(=O)N[C@H](C(=O)O)C(C)C)cc1	i	0.86	-1.5	91	-7	11	96
Cc1ccccc1NC(=O)c1ccccc1O	i	1	-4.9	103	-1	9	149
O=C(c1ccc(S(=O)(=O)NCc2ccco2)cc1)N1CCCC1	i	0.9	.	101	-4	31	105
Cc1cc(C)c2cc(CN(CCO)Cc3nnnn3Cc3ccc(F)cc3)c(=O)[nH]c2c1	i	0.99	-1.2	102	-16	-40	119
O=C(CSc1nc2cc(S(=O)(=O)N3CCOCC3)ccc2o1)Nc1c(F)cccc1F	i	0.91	.	80	-6	24	109
COc1ccc(N(CC(=O)Nc2ccc3c(c2)OCO3)S(=O)(=O)c2ccc(C)cc2)cc1OC	i	1	.	108	-5	50	105
Cn1c(=O)c2c(nc(SCC(=O)NCc3ccco3)n2C)n(C)c1=O	i	1	0.5	101	-5	6	125
O=C(O)c1cccc(NS(=O)(=O)c2ccc3nnn(O)c3c2)c1	i	0.86	-1.6	92	0	26	111
Later entries:
SMILES	HSV replic up	HSV replic up primary fold	GALR2 agonist	RGS16-Gao HTS	PKD1 inh	INS promoter inh	INS promoter inh cell count
Cc1ccc(C)c(SCC(=O)OCC(=O)N2CC(C)OC(C)C2)c1 (centres undefined)	i	0.92	.	106	-1	18	211
COc1ccc(C(=O)NC(=O)N2CCCCC2)cc1	i	0.97	-0.8	88	0	-26	75
CC(C)C(=O)N1CCN(c2nc(-c3ccc(Cl)cc3)cs2)CC1	i	0.99	.	98	-3	-7	123
O=C1CC(SC(=NCc2ccc3c(c2)OCO3)Nc2ccccc2)C(=O)N1c1ccccc1 (centres undefined)	i	1	-1.0	111	-4	-52	129
CC(=O)c1c(O)cc(O)cc1CC(=O)O	i	1.1	.	98	-4	.	.
C#CCn1c(-c2ccccc2)ccc(C#N)c1=O	i	0.97	.	104	-3	-20	127
Cn1c(=O)n(CC(=O)NCc2cccnc2)c2ccccc21	i	0.82	-1.2	107	-2	-144	65
COC(=O)c1ccccc1NS(=O)(=O)c1ccc(F)cc1	i	0.96	-2.3	104	-6	-14	146
COc1ccc(-c2nnc3sc(-c4cccs4)nn23)cc1OC	i	1	-0.3	101	-8	29	100
COc1ccc(N2C(=O)CS(=O)C(c3ccccc3)C2=O)cc1 (centres undefined)	i	0.94	.	77	-7	.	.

For convenience, 14 of the compounds above.
SMILES	HSV replic up	HSV replic up primary fold	GALR2 agonist	RGS16-Gao HTS	PKD1 inh	INS promoter inh	INS promoter inh cell count
O=C(CSc1nc2cc(S(=O)(=O)N3CCOCC3)ccc2o1)Nc1c(F)cccc1F	i	0.91	.	80	-6	24	109
COc1ccc(N(CC(=O)Nc2ccc3c(c2)OCO3)S(=O)(=O)c2ccc(C)cc2)cc1OC	i	1	.	108	-5	50	105
Cn1c(=O)c2c(nc(SCC(=O)NCc3ccco3)n2C)n(C)c1=O	i	1	0.5	101	-5	6	125
O=C(O)c1cccc(NS(=O)(=O)c2ccc3nnn(O)c3c2)c1	i	0.86	-1.6	92	0	26	111
Cc1ccc(C)c(SCC(=O)OCC(=O)N2CC(C)OC(C)C2)c1 (centres undefined)	i	0.92	.	106	-1	18	211
COc1ccc(C(=O)NC(=O)N2CCCCC2)cc1	i	0.97	-0.8	88	0	-26	75
CC(C)C(=O)N1CCN(c2nc(-c3ccc(Cl)cc3)cs2)CC1	i	0.99	.	98	-3	-7	123
O=C1CC(SC(=NCc2ccc3c(c2)OCO3)Nc2ccccc2)C(=O)N1c1ccccc1 (centres undefined)	i	1	-1.0	111	-4	-52	129
CC(=O)c1c(O)cc(O)cc1CC(=O)O	i	1.1	.	98	-4	.	.
C#CCn1c(-c2ccccc2)ccc(C#N)c1=O	i	0.97	.	104	-3	-20	127
Cn1c(=O)n(CC(=O)NCc2cccnc2)c2ccccc21	i	0.82	-1.2	107	-2	-144	65
COC(=O)c1ccccc1NS(=O)(=O)c1ccc(F)cc1	i	0.96	-2.3	104	-6	-14	146
COc1ccc(-c2nnc3sc(-c4cccs4)nn23)cc1OC	i	1	-0.3	101	-8	29	100
COc1ccc(N2C(=O)CS(=O)C(c3ccccc3)C2=O)cc1 (centres undefined)	i	0.94	.	77	-7	.	.

Assay outcomes (PubChem)

Random draw from the library, and some 1.3% of all compounds hit somewhere here.
